From PubChem
Vaccinia inh: blocks a specific stage of Vaccinia orthopoxvirus infection; Vaccinia-infected cells, mCherry/Venus stage reporter fluorescence; hits give low values; some inactives read as strong as hits; activity change (mCherry), % (concentration not given with the values); hit rate 0.01% among 89,000; AID 1053133;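 active = mCherry past -33% and 40 or more points under the early reporter, replicates agreeing; inconclusive = past -33% without that gap or agreement; tested in A549 cells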;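 also: scaled between vehicle wells and reference inhibitor wells; 23 nL library stock went into each well; one replicate is shown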
Vaccinia inh Venus: recorded beside Vaccinia inh, whose call it bears; activity change (Venus), %; measured here: Venus reporter, other viral stage;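 negative = less Venus signal; first of two replicates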
* hit, by the source's call; ? = inconclusive; nt = not tested or not shown.

Values run as follows: Vaccinia inh, Vaccinia inh Venus
1	COc1ccc(NC(=O)Nc2ccc3c(c2)CC(=O)N([C@H](C)CO)C[C@H](C)[C@@H](CN(C)C(=O)Nc2ccc(F)cc2)O3)cc1
→ 3, 11
2	C[C@@H]1CCCCO[C@@H](CN(C)Cc2ccc(Cl)c(Cl)c2)[C@H](C)CN([C@@H](C)CO)C(=O)c2cc(NS(C)(=O)=O)ccc2O1
→ ?, nt
3	C/C=C/c1ccc2c(c1)O[C@H](CN(C)C(=O)NC(C)C)[C@@H](C)CN([C@H](C)CO)S2(=O)=O
→ 1, -2
4	CC(=O)N1[C@@H]2c3ccc(-c4cncnc4)c(=O)n3C[C@@H]2[C@@H](CO)[C@@H]1C(=O)NCc1ccccc1Cl
→ 8, 5
5	C[C@H]1CN([C@@H](C)CO)C(=O)c2cccc(N(C)C)c2O[C@H]1CN(C)S(=O)(=O)c1ccc(F)cc1
→ 11, 4
6	C[C@H](CO)N1C[C@H](C)[C@@H](CN(C)CC2CCCCC2)Oc2c(NC(=O)Nc3ccc4c(c3)OCO4)cccc2C1=O
→ -14, -14
7	COCCNC(=O)C[C@@H]1C[C@@H]2c3cc(NS(=O)(=O)c4ccccc4)ccc3O[C@@H]2[C@@H](CO)O1
→ 15, 15
8	COc1ccc(NC(=O)N[C@H]2CC[C@H](CCNS(=O)(=O)c3cccc(Cl)c3)O[C@@H]2CO)cc1
→ -5, -1
9	CN(C)CC#Cc1ccc([C@@H]2[C@@H](CO)N3CCCCN(C(=O)Nc4cc(F)ccc4F)C[C@@H]23)cc1
→ 1, 0
10	O=C([C@@H]1[C@@H](CO)[C@@H]2Cn3c(cccc3=O)[C@H]1N2CC1CCCC1)N1CCCCC1
→ 13, 14
11	C/C=C/c1ccc([C@H]2[C@H](CO)N3CCCCN(S(=O)(=O)c4ccc(OC)cc4)C[C@@H]23)cc1
→ -22, -21
12	COc1ccc(NC(=O)N(C)C[C@@H]2OCCCC[C@H](C)Oc3ccc(NC(=O)c4ccccc4)cc3C(=O)N([C@@H](C)CO)C[C@@H]2C)cc1
→ 0, -4
13	CCCC(=O)Nc1ccc2c(c1)OC[C@@H](C)N(Cc1ccc(-c3ccccn3)cc1)C[C@@H](C)[C@@H](OC)CN(C)C2=O
→ -9, -21
14	O=C(NC[C@H]1[C@@H](c2ccccc2)[C@@H](CO)N1CC1CCCC1)c1ccncc1
→ -3, -5
15	CC=Cc1ccc2n(c1=O)C[C@H]1[C@H](CO)[C@@H](C(=O)NC3Cc4ccccc4C3)N(CCC)[C@@H]21 (mixture of isomers)
→ -8, -1
16	CN(C)Cc1cn(CC[C@@H]2CC[C@H](NC(=O)Nc3ccc4c(c3)OCO4)[C@@H](CO)O2)nn1
→ 3, 0
17	CC(C)C(=O)Nc1ccc2c(c1)C(=O)N(C)[C@@H]1CC[C@H](CC(=O)O)O[C@H]1CO2
→ 12, 9
18	O=C(CN1CCOCC1)NCC[C@H]1CC[C@@H](NC(=O)Nc2ccccc2)[C@H](CO)O1
→ 20, 18
19	CC(C)NC(=O)N(C)C[C@@H]1Oc2cc(C#C[C@H](C)O)ccc2S(=O)(=O)N([C@@H](C)CO)C[C@@H]1C
→ 33, 10
20	O=C(Nc1ccc2c(c1)[C@@H]1C[C@H](CC(=O)N3CCOCC3)O[C@@H](CO)[C@@H]1O2)c1cccnc1
→ 5, 2
21	C[C@H]1CN([C@@H](C)CO)C(=O)c2cccc(NS(C)(=O)=O)c2O[C@@H]1CN(C)Cc1ccc(C(F)(F)F)cc1
→ 6, 3
22	Cc1ccc(S(=O)(=O)Nc2cccc3c2O[C@H](CN(C)C(=O)Nc2c(C)noc2C)[C@@H](C)CN([C@@H](C)CO)C3=O)cc1
→ 1, -1
23	Cc1noc(C)c1S(=O)(=O)N(C)C[C@H]1OCCCC[C@@H](C)Oc2ccc(NS(=O)(=O)c3cn(C)cn3)cc2C(=O)N([C@@H](C)CO)C[C@@H]1C
→ 13, 4
24	O=C(NC1CCCCC1)N[C@@H]1CC[C@H](CC(=O)N2CCOCC2)O[C@@H]1CO
→ 10, 0
25	C[C@@H]1CCCCO[C@H](CN(C)S(=O)(=O)c2ccc(Cl)cc2)[C@@H](C)CN([C@@H](C)CO)C(=O)c2cc(NC(=O)c3ccccc3)ccc2O1
→ -13, -11
26	C[C@H](CO)N1C[C@H](C)[C@H](CN(C)S(=O)(=O)c2ccc(F)cc2)OCCCC[C@H](C)Oc2ccc(NS(=O)(=O)c3cn(C)cn3)cc2C1=O
→ 15, 0
27	COc1ccc(NC(=O)N(C)C[C@@H]2OCCCC[C@H](C)Oc3ccc(NS(C)(=O)=O)cc3C(=O)N([C@H](C)CO)C[C@H]2C)cc1
→ 13, 9
28	Cc1noc(C)c1NC(=O)N(C)C[C@H]1Oc2ccc(NC(=O)C3CCCCC3)cc2CC(=O)N([C@H](C)CO)C[C@@H]1C
→ 1, -3
29	O=C(C[C@H]1C[C@@H]2c3cc(NC(=O)C4CCC4)ccc3O[C@@H]2[C@@H](CO)O1)NCc1ccccn1
→ 8, 13
30	O=C(c1ccc(F)cc1)N1C[C@@H]2[C@H](c3ccccc31)[C@@H](CO)N2C(=O)c1ccccc1
→ -7, 4

Later entries
Values run as follows: Vaccinia inh, Vaccinia inh Venus
31	COc1ccc(S(=O)(=O)N2CC[C@H]3[C@@H](CO)N(C)c4ccc(-c5ccc(F)cc5)cc4[C@H]32)cc1
→ ?, nt
32	COc1ccc(S(=O)(=O)Nc2cccc3c2O[C@H](CN(C)Cc2ccc(C(=O)Nc4ccccc4N)cc2)[C@@H](C)CN([C@H](C)CO)C3=O)cc1
→ 14, 10
33	C[C@H]1CN([C@@H](C)CO)C(=O)Cc2cc(NC(=O)NC3CCCCC3)ccc2O[C@H]1CN(C)CC1CCCCC1
→ -16, -21
34	CCCN1[C@@H]2Cn3c(ccc(C4=CCCCC4)c3=O)[C@H]1[C@@H](C(=O)NCC(F)(F)F)[C@@H]2CO
→ -1, 8
35	OC[C@H]1[C@H](c2ccc(C#Cc3ccccc3)cc2)[C@@H]2CN(CC3CCOCC3)CCCCN12
→ ?, nt
36	COc1ccc(NC(=O)N(C)C[C@@H]2Oc3ccc(NC(=O)C4CC4)cc3CC(=O)N([C@@H](C)CO)C[C@@H]2C)cc1
→ -4, -1
37	O=C(C1CCOCC1)N1CC2(C1)[C@H](c1ccccc1)[C@H](CO)N2CCC(F)(F)F
→ -3, -1
38	CCCNC(=O)C[C@H]1CC[C@@H]2[C@H](COC[C@@H](O)CN2C(=O)c2cccnc2)O1
→ 16, 6
39	COc1ccc(NC(=O)N(C)C[C@@H]2OCc3cnnn3CCCC(=O)N([C@@H](C)CO)C[C@@H]2C)cc1
→ -6, 4
40	CN(C)C(=O)C[C@@H]1C[C@@H]2c3cc(NC(=O)C4CCC4)ccc3O[C@@H]2[C@@H](CO)O1
→ 17, 16
41	O=C(C[C@H]1C[C@@H]2c3cc(NC(=O)NC4CCCCC4)ccc3O[C@@H]2[C@H](CO)O1)NC1CCCCC1
→ 26, 11
42	C[C@@H]1CCCCO[C@H](CN(C)Cc2ccc(Cl)c(Cl)c2)[C@H](C)CN([C@@H](C)CO)C(=O)c2cc(NC(=O)Nc3ccc(C(F)(F)F)cc3)ccc2O1
→ -17, -10
43	CCCNC(=O)C[C@@H]1CC[C@H]2[C@H](COc3ccc(NC(=O)Nc4cccc(C)c4)cc3C(=O)N2C)O1
→ -8, -8
44	CCCNC(=O)N(C)C[C@H]1Oc2cc(C#Cc3ccccn3)ccc2S(=O)(=O)N([C@@H](C)CO)C[C@@H]1C
→ -5, -9
45	O=C(NCCc1ccccc1)[C@@H]1[C@@H](CO)[C@@H]2Cn3c(ccc(-c4ccccc4)c3=O)[C@H]1N2
→ -2, -1
46	O=C(c1ccc2c(c1)OCO2)N1CC(=O)N2[C@H](CO)[C@@H](c3ccc(C#Cc4ccccc4)cc3)[C@@H]2C1
→ -14, -17
47	O=C(Cc1ccncc1)N1CCCCN2[C@H](CO)[C@H](c3ccc(C#CC4(O)CCCC4)cc3)[C@@H]2C1
→ 6, 0
48	Cc1cccc(-c2ccc([C@H]3[C@@H](CO)N4CCCCN(CCC(F)(F)F)C[C@H]34)cc2)c1
→ ?, nt
49	C[C@H]1CN([C@@H](C)CO)C(=O)Cc2cc(NC(=O)Cc3ccccc3)ccc2O[C@H]1CN(C)C(=O)Nc1ccccc1
→ 7, 8
50	CO[C@@H]1CN(C)C(=O)c2cc(NC(C)=O)ccc2OC[C@H](C)N(C(=O)c2ccccc2)C[C@H]1C
→ -1, -1
51	CN1C(=O)c2cc(NC(=O)c3cccc(C(F)(F)F)c3)ccc2OC[C@H]2O[C@H](CC(=O)NCCN3CCCC3)CC[C@@H]21
→ 21, 9
52	CCCNC(=O)N1[C@@H]2CN(C(=O)c3ccc(F)cc3)c3ccccc3[C@@H]2[C@@H]1CO
→ 14, 10
53	Cc1noc(C)c1S(=O)(=O)Nc1ccc2c(c1)CC(=O)N([C@H](C)CO)C[C@H](C)[C@H](CN(C)C)O2
→ 5, 10
54	CN(C)CC(=O)N1[C@H](CO)[C@@H](c2ccccc2)C12CN(C(=O)c1ccccc1)C2
→ 9, 13
55	C[C@@H]1CCCCO[C@@H](CN(C)C(=O)Nc2ccc3c(c2)OCO3)[C@@H](C)CN([C@@H](C)CO)C(=O)c2cc(NS(=O)(=O)c3ccccc3)ccc2O1
→ 14, -3
56	CO[C@@H]1CN(C)C(=O)c2ccc(NS(C)(=O)=O)cc2OC[C@H](C)N(S(C)(=O)=O)C[C@H]1C
→ 10, 7
57	CCC(=O)N1CC2(C1)[C@@H](c1ccc(-c3ccc(F)cc3)cc1)[C@@H](CO)N2C(C)=O
→ 9, 13
58	CO[C@@H]1CN(C)C(=O)c2ccc(NC(=O)Nc3ccc(Cl)cc3)cc2OC[C@@H](C)N(C)C[C@@H]1C
→ -30, -13
59	Cn1cnc(S(=O)(=O)N2C[C@H](O)COC[C@H]3O[C@H](CC(=O)NCc4cccc(F)c4)CC[C@@H]32)c1
→ 14, 19
60	C[C@@H]1CN([C@H](C)CO)C(=O)c2cc(C3=CCCCC3)cnc2O[C@@H]1CN(C)Cc1ccncc1
→ 5, 8

Looked up by structure from the entries so far:
Values run as follows: Vaccinia inh, Vaccinia inh Venus
41	O=C(C[C@H]1C[C@@H]2c3cc(NC(=O)NC4CCCCC4)ccc3O[C@@H]2[C@H](CO)O1)NC1CCCCC1
→ 26, 11
33	C[C@H]1CN([C@@H](C)CO)C(=O)Cc2cc(NC(=O)NC3CCCCC3)ccc2O[C@H]1CN(C)CC1CCCCC1
→ -16, -21
46	O=C(c1ccc2c(c1)OCO2)N1CC(=O)N2[C@H](CO)[C@@H](c3ccc(C#Cc4ccccc4)cc3)[C@@H]2C1
→ -14, -17
48	Cc1cccc(-c2ccc([C@H]3[C@@H](CO)N4CCCCN(CCC(F)(F)F)C[C@H]34)cc2)c1
→ ?, nt
52	CCCNC(=O)N1[C@@H]2CN(C(=O)c3ccc(F)cc3)c3ccccc3[C@@H]2[C@@H]1CO
→ 14, 10

The listing picks up, starting 2 compounds before the break.
Values run as follows: Vaccinia inh, Vaccinia inh Venus
59	Cn1cnc(S(=O)(=O)N2C[C@H](O)COC[C@H]3O[C@H](CC(=O)NCc4cccc(F)c4)CC[C@@H]32)c1
→ 14, 19
60	C[C@@H]1CN([C@H](C)CO)C(=O)c2cc(C3=CCCCC3)cnc2O[C@@H]1CN(C)Cc1ccncc1
→ 5, 8
61	N#C[C@H]1[C@@H](c2ccccc2C2=CCCC2)[C@H](CO)N1C(=O)CN1CCOCC1
→ -1, -6
62	C[C@H]1CN([C@@H](C)CO)C(=O)c2cccc(NS(=O)(=O)c3ccc(F)cc3)c2O[C@H]1CN(C)C(=O)Nc1ccc2c(c1)OCO2
→ 13, 13
63	CCCNC(=O)N(C)C[C@H]1Oc2cc(C#Cc3ccccn3)ccc2S(=O)(=O)N([C@H](C)CO)C[C@@H]1C
→ 0, -3
64	C[C@@H](NC(=O)C[C@H]1C[C@H]2c3cc(NC(=O)CC4CC4)ccc3O[C@H]2[C@@H](CO)O1)c1ccccc1
→ 9, 14
65	CCN1[C@H](C(=O)OC)[C@@H](CO)[C@@H]2Cn3c(ccc(-c4cncnc4)c3=O)[C@@H]21
→ 4, 2
66	C[C@H](CO)N1C[C@H](C)[C@@H](CN(C)S(C)(=O)=O)Oc2ccc(NS(C)(=O)=O)cc2C1=O
→ 10, 6
67	Cc1ccc(S(=O)(=O)Nc2ccc3c(c2)C(=O)N([C@@H](C)CO)C[C@H](C)[C@@H](CN(C)C(=O)NC2CCCCC2)OCCCC[C@@H](C)O3)cc1
→ ?, nt
68	COCC(=O)N(C[C@@H]1N[C@@H](CO)[C@H]1c1ccc(-c2cccnc2)cc1)C(C)C
→ 5, 22
69	COc1ccc2c3c(n(C)c2c1)[C@@H](CO)N(S(C)(=O)=O)CC31CN(C(=O)C2CCC2)C1
→ 17, 12
70	CC(=O)N(C)C[C@H]1Oc2cc(C#CCC(C)C)ccc2S(=O)(=O)N([C@@H](C)CO)C[C@@H]1C
→ -6, -2
71	Cc1noc(C)c1NC(=O)N(C)C[C@@H]1Oc2ccc(NS(=O)(=O)c3ccc(Cl)cc3)cc2C(=O)N([C@H](C)CO)C[C@H]1C
→ 21, 9
72	C[C@@H]1CN([C@H](C)CO)C(=O)c2cc(NC(=O)c3ccncc3)ccc2O[C@H]1CN(C)C
→ 24, 19
73	Cc1noc(C)c1NC(=O)N(C)C[C@@H]1OCc2ccccc2-c2ccccc2C(=O)N([C@@H](C)CO)C[C@@H]1C
→ 20, 9
74	C[C@@H]1CN([C@H](C)CO)C(=O)c2cccc(NC(=O)NC3CCCCC3)c2O[C@H]1CN(C)Cc1ccc(Oc2ccccc2)cc1
→ ?, nt
75	C[C@@H]1CN([C@@H](C)CO)C(=O)c2cc(NC(=O)C3CCCCC3)ccc2O[C@H]1CN(C)C(=O)Nc1ccc(F)cc1
→ 11, 9
76	O=C(NC[C@@H]1CC[C@@H]2[C@@H](CN2C(=O)Cc2ccncc2)O1)C1CCOCC1
→ 8, 11
77	O=C(c1cccnc1)N1C[C@H]2[C@@H](c3ccccc31)[C@@H](CO)N2C(=O)Nc1cccc(F)c1
→ 19, 12

These rows are one share of the data; rates above refer to the full screens.
